# GLA inh pH 4.5: inhibitors of human alpha-galactosidase A at pH 4.5 | purified enzyme, 4-MU-alpha-Gal fluorescence, pH 4.5 | AID 1467 | activity change, negative = inhibition, % at 105 µM | 230,000 tested, under 10 active; inconclusive = small, poorly fitted or top-dose-only inhibition, or a rising curve; inactive = flat fitted curve, though single readings scatter; no compound was filed as active;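 also: 0% = full activity with enzyme and -100% = basal without enzyme; dose as in the result columns while the protocol names 77 µM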
# Target sequence (P06280 whole entry, looked up): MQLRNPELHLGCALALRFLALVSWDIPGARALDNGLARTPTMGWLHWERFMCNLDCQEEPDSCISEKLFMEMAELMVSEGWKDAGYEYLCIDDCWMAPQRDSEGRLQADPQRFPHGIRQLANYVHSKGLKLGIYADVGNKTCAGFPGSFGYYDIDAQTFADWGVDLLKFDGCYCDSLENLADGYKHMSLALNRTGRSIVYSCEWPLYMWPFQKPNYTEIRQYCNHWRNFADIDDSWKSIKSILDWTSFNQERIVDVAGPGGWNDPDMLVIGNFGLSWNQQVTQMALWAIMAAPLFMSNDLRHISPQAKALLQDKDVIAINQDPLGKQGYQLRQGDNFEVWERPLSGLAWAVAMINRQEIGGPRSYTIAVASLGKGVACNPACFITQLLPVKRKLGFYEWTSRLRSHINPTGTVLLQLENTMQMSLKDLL
# Rango dissoc inh: inhibition of RanGTP-driven Rango-importin beta dissociation. O95149+P62826. Biochemical FRET Rango-importin beta, RanGTP-induced dissociation. Potency, µM (series often up to 46.1 µM), for the others: top-dose activity change, negative = inhibition. hit rate 0.071% among 340,000. AID 540253; active means falling FRET ratio curve, often poorly fitted, with flat reads before Ran was added; inconclusive means other falling curves, or compound fluorescence or quenching; inactive means flat or rising ratio curve;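 also: potency is read from the fitted curve at half-maximal effect; % of control where 0% means no effect; nearly all actives have a fitted effect of over 45% in size; -100% = wells without RanGTP and RCC1; the record marks most hits as doubtful in a second field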
#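 Rango/importin beta premix (0.1/0.25 uM final), PBS + 1 mM DTT + 0.02% Tween-20 + 0.1% BSA; cpd 5 min RT; FRET pre-read; + RanGTP-RCC1 (0.6 uM Ran, 2 mM GTP, 0.2 uM RCC1); 45 min RT; FRET post-read, ex 430, em 486/530 nm.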
# miR-21 FLuc: miR-21 reporter, rising signal | HeLa miR-21 FLuc reporter, luciferase, 48 h | Potency, µM (doses to about 38.3 µM), without a hit: at the top dose reporter change, positive = more light | 340,000 tested, under 10 active; active = well fitted rising curve with a large enough effect; inconclusive = small, poorly fitted or top-dose-only effect; inactive = no such curve, though single readings can be large or run the other way;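 also: % of control where 0% means no effect; miR-21 action dims this reporter so a rising signal means less miR-21 action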
#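 Using DMEM plus 10% FBS, HeLa miR-21-FLuc cells are incubated with test compounds (final up to about 40uM) for 48 hours; firefly luciferase signal is then imaged following reagent-mediated lysis.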
# Rango complex inh: prevents formation of the Rango-importin beta complex; Q14974; AID 540263; Rango CFP/YFP FRET sensor + importin beta, 45 min; hit rate 0.031% among 340,000; Potency, µM (doses to about 92.2 µM), for inactives: at the highest dose inhibition of complex formation; active = rising FRET ratio curve, often small or poorly fitted; inconclusive = mostly compound fluorescence or quenching in the first reads; inactive = flat curves in all reads;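 also: potency is read from the fitted curve at half-maximal effect; 0% = DMSO wells and 100% = buffer wells lacking importin beta; nearly all actives have a fitted effect of over 15% in size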
#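 FRET biosensor Rango (snurportin 1 IBB between N-terminal EYFP and C-terminal Cerulean), 50 nM in PBS/1 mM DTT/0.02% Tween-20/0.1% BSA, preincubated 5 min RT with compound; 0.125 microM importin beta added, 45 min RT, CFP/YFP FRET ratio read.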
# * = called active by the depositor; ? = inconclusive; / = not tested or not shown; & = joins results of further samples. A portion of the library. The share of hits here may be higher or lower than overall.
Structure,Rango complex inh,GLA inh pH 4.5,miR-21 FLuc,Rango dissoc inh
O=C(Nc1ccc(S(=O)(=O)Nc2nccs2)cc1)C1CC(=O)N(c2ccccc2)C1 (stereo unspecified),3.0%,-25,1%,-1%
O=C(c1ccc(Cl)cc1[N+](=O)[O-])N1CCOCC1,?,-3,6%,-23%
N=c1ccn(Cc2ccccc2Cl)cc1,-9.7%,12,28%,39%
COc1ccc(N(CC(=O)NCc2ccccc2Cl)S(=O)(=O)c2c(C)noc2C)cc1,0.8%,/,9%,24%
CNC(=S)NC1(C)CCS(=O)(=O)C1 (stereo unspecified),0.5%,-2,3%,-1%
CCCCc1nc(NCC2CCCO2)c(C#N)c2c1COC(C)(C)C2 (stereo unspecified),-3.4%,-1,-2%,-6%
COC(=O)C(O)(NC(=O)c1ccncc1)C(F)(F)F (stereo unspecified),4.3%,-7,-1%,-22%
CCOC(=O)C(=O)Nc1ccc(OC)c(Cl)c1,0.0%,-14,0%,3%
CCc1nnc(NC(=O)CN2CCN(C3CCCCC3)CC2)s1,-7.4%,5,3%,0%
CCOC(CCNC(=O)CCC(=O)Nc1ccc2nc(N3CCN(C)CC3)cc(C)c2c1)OCC,2.7%,/,-3%,15%
CC(=O)Nc1ccc(Sc2ncccc2C(=O)Nc2ccc(F)cc2)cn1,0.7%,-2,-7%,10%
COc1ccc(S(=O)(=O)N2CCc3ccccc32)cc1C(=O)NCc1ccco1,-2.6%,/,/,-6%
COC(=O)N1N=C(c2ccccc2)CC1(O)C(F)(F)F (stereo unspecified),0.9%,1,-35%,16%
COc1cc(NC(=O)C2CC(c3cccc(Br)c3)=NO2)cc(OC)c1OC (stereo unspecified),-2.0%,/,14%,0%
CCC(=O)Nc1cccc(NC(=O)c2cccnc2)c1,4.0%,-15,-17%,-7%
Cn1c(CNC(=O)Nc2cccc(Cl)c2)nnc1SCc1ccccc1,1.3%,-18,-5%,3%
O=C(Nc1ccc(Oc2ccccc2)nc1)C1CCN(Cc2ccccc2)CC1,-1.3%,/,11%,1%
CS(=O)c1ccccc1COC(=O)Nc1ccc(Cl)cc1 (stereo unspecified),-0.6%,1,-20%,27%
CCOC(=O)c1cnc(-c2ccc(C(F)(F)F)cn2)[nH]c1=O,0.5%,-4,2%,-12%
NC(=O)CN1C(=O)C(O)(CC(=O)/C=C\C=C\c2ccccc2)c2ccccc21 (stereo unspecified),2.1%,-6,2%,?
COc1cc2c(cc1OC)-c1cc(Nc3ccccc3)nc(=O)n1CC2,-3.7%,-18,-24%,-12%
CC(=O)c1ccccc1OC(=O)c1ccc(-c2ccccc2)cc1,-0.2%,/,/,-8%
Cc1ccccc1OCCn1cc(C(=O)C(=O)N2CCOCC2)c2ccccc21,-1.8%,1,-11%,0%
C=CCC1=C/C(=C\c2c(N)n3nc(CC(=O)N4CCOCC4)sc3nc2=O)C=C(OC)C1=O,?,/,-5%,?
COc1ccc(S(=O)(=O)NC(C)C(=O)NCc2ccc3c(c2)OCO3)cc1OC (stereo unspecified),0.5%,/,3%,10%
COc1ccc(-c2cc(C(=O)Nc3cc(C)nn3-c3ccccc3)no2)cc1OC,-3.9%,3,4%&-3%,12%
CCc1ccccc1NC(=O)Cn1nc(C)n2cccc2c1=O,-0.6%,/,0%,0%
COc1cccc(C(=O)Nc2c(C(N)=O)oc3ccccc23)c1,1.0%,0,0%,1%
CCOc1cc(-c2ccc(N)c(OCC)c2)ccc1N,-1.9%,4,-3%,0%
CN(C)c1ccc(/C=C/c2ccc3ccccc3[n+]2C)cc1,1.1%,-6,?,1%
O=C(NNC(=O)c1ccc(SCC2CCCO2)c([N+](=O)[O-])c1)c1ccc(F)cc1 (stereo unspecified),0.0%,4,0%,14%
Cc1ccc(-c2noc(CCC(=O)Nc3ccc4c(c3)OCO4)n2)cc1,-2.8%,-9,-6%,-3%
O=C(NC1CCCCC1)c1cccnc1Sc1ccccc1,3.6%,/,-10%,-23%
O=C(Nc1ccncc1)c1ccc(Cl)c(S(=O)(=O)N2CCc3ccccc32)c1,0.7%,/,/,13%
CCOc1cc(C(=O)OC(C)C(=O)Nc2ccc(S(N)(=O)=O)cc2)ccc1OCC(=O)N1CCOCC1 (stereo unspecified),0.0%,/,/,-6%
COc1ccc(-n2nc(C(=O)NCC(=O)N3CCCCCC3)c3ccccc3c2=O)cc1OC,-1.9%,/,-7%,1%
COc1ccccc1N(CC(=O)NCC1CCCO1)C(=O)CNS(=O)(=O)c1ccc(Cl)cc1 (stereo unspecified),-0.4%,8,5%,-1%
COc1ccc(NC(=O)c2oc3ccccc3c2NC(=O)C2CC2)c(OC)c1,-0.4%,/,-1%,-8%
CCOc1ccccc1NC(=O)CN1c2cccc3cccc(c23)S1(=O)=O,?,/,/,-21%
O=C(CN1C(=O)c2ccccc2S1(=O)=O)Nc1ccc(S(=O)(=O)N2CCCCC2)cc1,-0.8%,7,0%,14%
Cc1cc(=O)n2nc(N3CCCC3C(=O)Nc3ccc(C(C)C)cc3)sc2n1 (stereo unspecified),-1.5%,/,-2%,1%
COc1ccc(C2=NS(=O)(=O)N(C)C(C(=O)Nc3ccc(C)cc3)=C2)cc1,-2.4%,/,-5%,16%
Cc1ccccc1CC1(CO)CCCN(C(=O)c2ccc3ncccc3c2)C1 (stereo unspecified),3.8%,-4,-4%,-10%
COc1cc(OC)c(OC)cc1C#N,-1.9%,/,-1%,19%
C#CCOCCOCCOCCNc1nc(N2CCN(C(=O)C([C@@H](C)O)n3cc([C@@H](N)CCCCN)nn3)CC2)nc(N2CCN(C(=O)[C@H](CC(N)=O)n3cc([C@@H](N)C(C)C)nn3)CC2)n1 (stereo partly specified),-1.1%,/,/,-8%
O=C(CCc1nnc(CCCCc2ccccc2)o1)NC(c1cccnc1)C(F)(F)F (stereo unspecified),3.2%,2,6%,16%
CCOC(=O)c1c(NC(=O)CSc2nc3ccc(C)cc3[nH]2)sc2c1CC(C)(C)NC2(C)C,?,/,/,-19%
O=C(N/N=C/c1cccs1)c1ccc(NC(=O)c2ccccc2Cl)cc1,0.0%,-8,-5%,2%
O=C(COC(=O)C1CC1)NCCNC(=O)COC(=O)C1CC1,7.4%,/,/,-2%
O=C(Nc1ccc2c(c1)OCCO2)c1ccc(Br)o1,0.4%,-22,-23%,5%

# (cont.)
Structure,Rango complex inh,GLA inh pH 4.5,miR-21 FLuc,Rango dissoc inh
CC1C(c2ccccc2)N(C)C(c2ccccc2)CC1(O)c1ccccc1 (stereo unspecified),0.4%,-6,11%,?
COc1ccc(C2=NS(=O)(=O)N(C)C(C(=O)NCc3ccccn3)=C2)cc1OC,-4.7%,/,3%,-17%
O=C1NCC(O)=C1C=Nc1ccccc1O,0.1%,-8,1%,-2%
O=C(Nc1ccc(NC(=S)NC(=O)c2cccs2)cc1)c1ccccc1,-3.5%,6,-14%,9%
CCOc1cc2c(cc1OCC)C(c1ccc(C(=O)O)cc1)NCC2 (stereo unspecified),-0.1%,/,0%,5%
Cc1csc(CCc2nc(C)cs2)n1,-1.2%,/,-11%,-4%
CC1(C)CC(=O)c2cnc(NC(=O)C3CCCC3)nc2C1,4.2%,-4,-25%,0%
CC(C(=O)Nc1ccccc1)N(c1cccc(Cl)c1)S(C)(=O)=O (stereo unspecified),-0.9%,-1,-6%,0%
O=C1CN(C(=O)COC(=O)Cc2ccccc2F)c2ccccc2N1,0.4%,/,/,-24%
O=C(CSc1ncccn1)Nc1ccc2c(c1)OCO2,3.1%,/,/,2%

# Of the compounds above, 3 contain a thiophene ring, fused or not:
Structure,Rango complex inh,GLA inh pH 4.5,miR-21 FLuc,Rango dissoc inh
CCOC(=O)c1c(NC(=O)CSc2nc3ccc(C)cc3[nH]2)sc2c1CC(C)(C)NC2(C)C,?,/,/,-19%
O=C(N/N=C/c1cccs1)c1ccc(NC(=O)c2ccccc2Cl)cc1,0.0%,-8,-5%,2%
O=C(Nc1ccc(NC(=S)NC(=O)c2cccs2)cc1)c1ccccc1,-3.5%,6,-14%,9%

# (next part)
Structure,Rango complex inh,GLA inh pH 4.5,miR-21 FLuc,Rango dissoc inh
O=C(CNC(=O)c1ccc(Br)cc1)c1ccc(Br)cc1,-1.6%,/,-3%,3%
CC(=O)Nc1ccc(S(=O)(=O)N2CCc3ccccc3C2CC(=O)O)cc1 (stereo unspecified),2.7%,/,0%,0%
CCCCN(c1ccccc1)c1ncnc2nc[nH]c12,2.4%,5,-18%,1%
O=C(O)Cn1cc(/C=N/NC(=O)c2cc3cc(Br)ccc3o2)c2ccccc21,?,2,-3%,?
O=C(CN1C(=O)NC2(CCOc3ccccc32)C1=O)c1ccc(Br)cc1 (stereo unspecified),-0.5%,/,-1%,44%
COc1cc(SC)ccc1C(=O)Nc1nc(C)cc(C)n1,-1.2%,/,-18%,4%
CCOc1ccc2nc(NC(=O)CSc3nc4cccnc4n3C)sc2c1,-1.7%,7,-5%,-2%
COc1cc(NC(=O)CSc2nnc(-c3ccncc3)o2)cc(OC)c1OC,7.0%,/,-5%,13%
CCN(CC)C(=O)C1CCCN(C(=O)Nc2ccc(NC(=O)N3CCCC(C(=O)N(CC)CC)C3)cc2)C1 (stereo unspecified),-2.5%,6,0%,5%
CCN(CC)S(=O)(=O)c1cccc(C(=O)N/N=C/c2cccc(O)c2O)c1,3.4%,-4,0%,7%
CCCCOC(=O)C[N+](C)(C)CCOC1CC2CCC1(C)C2(C)C (stereo unspecified),0.6%,5,?,-8%
Cc1cccc(OC(C)C(=O)Nc2cc(Cl)ccc2-n2cncn2)c1 (stereo unspecified),-1.0%,/,/,-6%
O=C(c1ccco1)N1CCN(C(=O)c2ccc(-c3ccccc3Cl)o2)CC1,0.0%,/,/,4%
CCN(CC)C(=O)COc1ccc(S(=O)(=O)N2CCCC2)cc1,-1.2%,/,-13%,12%
CCCC(=O)Nc1c2c(nn1-c1ccccc1)CSC2,1.3%,/,-1%,-1%
Cc1cc(C(=O)NNC(=O)c2ccc(C)s2)c(C)o1,6.6%,/,/,0%
CSc1ccc(Cl)c(C(=O)Nc2ccc(Cl)cn2)c1,3.2%,-5,8%,-1%
O=C(Cc1csc(-c2ccccc2)n1)NCc1cccs1,?,1,-30%,3%
NNS(=O)(=O)c1ccc2c(c1)Cc1cc(S(=O)(=O)NN)ccc1-2,5.2%,/,0%,-8%
COc1cccc(CNCCSc2nnnn2C)c1,0.0%,7,-1%,26%
Cc1ccc(C(=O)NCCc2ccccc2)cc1,-5.4%,/,?,-10%
COc1ccccc1/C=C(/C(=O)OCC(=O)Nc1cc(C)ccc1C)c1ccccc1,0.6%,1,-8%,-2%
O=C1CCC/C(=N\NC(=O)c2ccc(CSc3cccc4cccnc34)cc2)C1,-3.0%,-3,-3%,-6%
C=CCc1ccccc1OCCOc1ccc([N+](=O)[O-])cc1/C=N/NC(N)=O,0.2%,3,0%,-1%
COc1ccc(N2CC(C)Cn3c2nc2c3c(=O)n(Cc3ccc(F)cc3)c(=O)n2C)c(OC)c1 (stereo unspecified),0.7%,-2,-2%,1%
CN(CC(=O)NCc1ccco1)S(=O)(=O)c1ccc2c(c1)c(=O)n(C)c(=O)n2C,-0.6%,7,0%,6%
CC(=O)Nc1ccc(NC(=O)c2ccco2)cc1,4.3%,2,-37%,-7%
Cc1ccc(C(C[N+](=O)[O-])c2c(N)n(C)c(=O)n(C)c2=O)cc1 (stereo unspecified),-1.8%,3,?,3%
Cc1c(Br)c(C(F)(F)F)nn1CC(=O)NCCCn1ccnc1,2.9%,3,-1%,-11%
COc1ccccc1N1CCN(CC(=O)Nc2sccc2C#N)CC1,1.1%,0,-13%,0%
S=c1[nH]nc(-c2ccccn2)n1/N=C/c1cccc(Cl)c1,1.4%,-9,1%,-6%

# Screening results: PubChem, National Center for Advancing Translational Sciences (NCATS)
